Screens from PubChem.
HSD17B inh: HSD17B dehydrogenase inhibition | Q99714 | recombinant HSD17B10, NADH fluorescence kinetic; many of its hits are not listed in these tables | Potency, µM (series often up to 57.1 µM), inactives show at the top dose activity change, negative = inhibition, actives largely listed as inhibitors | actives 7.6% (n = 75,000); active means well fitted inhibition curve with a large enough effect; inconclusive means small, poorly fitted or top-dose-only effect; inactive means no such curve, though single readings can be large or run the other way;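 further: the protocol describes HADH2 (HSD17B10) and not the HSD17B4 of the title; nearly all actives have a fitted effect of over 70% in size; most hits overshoot -100% by far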
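Enzyme plus compound, 15 min room temperature; substrate mix added (NAD+ 1 mM, beta-hydroxybutyryl-CoA 90 uM final); plates read kinetically for NADH fluorescence. HADH2 was His-tagged, E. coli-derived, 20 nM.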
* hit, by the source's call; i = inactive; ? = inconclusive; [ ] = another dose, or the depositor's remark. On the % scale 0 is the no-effect control and ±100 the full control effect; potency means the concentration at half of the fitted maximal effect.

smiles | HSD17B inh
O=C(Cc1cccs1)Nc1cccc(C(=O)Nc2ccco2)c1 | 8%
Clc1ccc(C2CC(c3ccco3)n3ncnc3N2)cc1Cl (centres undefined) | ?
COc1ccc(OC)c(C2N(c3ccccn3)C(=O)C3CCCN32)c1 (centres undefined) | -2%
CCC/C=C(\CCC)C(NS(=O)(=O)c1ccc(C(F)(F)F)cc1)c1ccccc1 (centres undefined) | -23%
N#C/C(C(=O)Oc1ccccc1)=C1\C=CC=CN1 | 272%[activator]
N[C@@H](CSC1(c2ccc(Cl)cc2)c2ccccc2-c2ccccc21)C(=O)O | 4%[11.4 µM]
CCOC(=O)c1sc(NC(=O)CSc2nnc3c4ccccc4n(CC)c3n2)nc1C | ?
CCc1ccccc1NC(=O)c1cc2sccc2n1C | -19%
CCOC(=O)c1cnc(-n2cc(C)cn2)nc1Nc1ccccc1OCC | -11%
O=C1c2ccccc2C(=O)N1OCCOCCOCCON1C(=O)c2ccccc2C1=O | 2%
CCCOC(=O)Nc1sc2c(c1C(=O)OCC)CCC2 | 2%
CC(C)(C)c1cc(C(c2cccnc2)N2CCN(CCO)CC2)cc(C(C)(C)C)c1O (centres undefined) | -26%
CC1CCc2nc(N)c(C#N)c(-c3cccn3C)c2C1 (centres undefined) | -2%
O=C(CSc1nc2ncc(Br)cc2[nH]1)Nc1ccc2c(c1)OCO2 | -23%
CCOC(=O)CC(=O)Nc1nc2ccccc2s1 | 7%
CCN(CC)c1ccc(NC(=O)CCCCCN2C(=O)c3ccccc3C2=O)cc1 | -14%
Cn1c(SCC(=O)N2CCCc3ccccc32)nnc1-c1c[nH]c2ccccc12 | 0%
CCSCC1COC(c2cccn2Cc2ccc(C)cc2)=N1 (centres undefined) | -9%
O=C1CCC(C(=O)Nc2cccc3ccccc23)N1 (centres undefined) | 0%
CCC(C)OC(=O)C1=C(C)NC(=O)CC1c1ccccc1OC (centres undefined) | -9%
O=C(O)CC/C=C\C[C@@H]1CO[C@H](c2ccccc2Cl)O[C@@H]1c1ccccc1O | 9%
CC(C)C(NC(=O)c1ccco1)C(=O)NCC(c1ccco1)N1CCCCC1 (centres undefined) | 6%
CCCn1c(-c2ccc(F)cc2)nc2c(NCCN3CCCCC3)nc(C)nc21 | 32µM*
COc1ccc(-n2c(Cc3cc(=O)[nH]c(=O)[nH]3)nnc2SCC(=O)NC2CCCC2)cc1 | 7%
O=C(Nc1ccccc1C(=O)NCc1ccc(Cl)cc1)c1ccco1 | ?
Cn1c(=O)[nH]c(=O)c2c1nc(Br)n2CCCCSc1nc2ccccc2o1 | -5%
O/N=C(\COc1ccccc1O)c1ccccc1 | -12%
Cn1c(=O)n(C)c2cc(S(=O)(=O)NCCc3ccccc3)ccc21 | 5%
Cc1cc(C(=O)OCn2nnc3ccccc3c2=O)c(C)o1 | 5%
O=C(NCc1ccco1)c1cc2n(n1)C(C(F)(F)F)CC(c1ccc(F)cc1)N2 (centres undefined) | 5%
COC(=O)[C@@]1(Cc2ccccc2)[C@H]2c3cc(C(=O)N(C)C)n(Cc4ccc(S(C)(=O)=O)cc4)c3C[C@H]2CN1C(=O)c1ccccc1 | 5%
O=C(NC1CCCC1)C1CCCN(S(=O)(=O)c2cccc3cccnc23)C1 (centres undefined) | 7%
O=C(CSc1nc(-c2ccco2)cc(C(F)(F)F)n1)NC1CCCC1 | -5%
Cc1ccc(Cn2c(=O)c3c(nc4n3CCN4Cc3ccco3)n(C)c2=O)cc1 | -18%
CCCCCCOC(=O)C1=C(C)NC(=O)NC1c1ccc(O)cc1 (centres undefined) | ?
O=C(OCC(=O)N1CCCCC1)c1cc2ccccc2cc1O | 1%
CC(=O)NC(C1C(=O)CC(C)(C)CC1=O)(C(F)(F)F)C(F)(F)F | -1%
Cc1csc2ncc(C(=O)NCc3ccccn3)c(=O)n12 | 25µM*
COc1ccccc1CN1CC2(CCN(C(=O)c3cc(C(F)(F)F)cc(C(F)(F)F)c3)CC2)C1 | 4%
O=C(CCc1nc2ccccc2[nH]1)NC1CCCCC1 | 6%
O=S(=O)(Nc1ccc(Cl)c(C(F)(F)F)c1)c1cnc[nH]1 | 1%
Cc1cc(Cl)c(OCCCn2cncn2)c(Br)c1 | -8%
O=C1c2ccccc2-c2c1cccc2C(=O)N1CCN(C(=O)c2ccco2)CC1 | -20%
O=C(Nc1cccc2ncccc12)c1cccnc1 | 10%
O=C1C(=C(O)c2ccccc2)C(=O)c2ccccc21 | -6%
N#Cc1cccc(NC(=O)N2CCC(c3nc4c(nnn4Cc4cccc(Cl)c4)c(=O)[nH]3)CC2)c1 | -5%
Clc1ccc(-c2noc(CN3CCCC3)n2)cc1 | -11%
CC(C)=CCCC(C)N(C=O)C(C)CCC=C(C)C (centres undefined) | -20%
Cc1ccc(Cn2c(SCC(C)C)nc3c2c(=O)[nH]c(=O)n3C)cc1 | -4%
c1ccc(CN2CCN(CCCNc3ccc4nnc(-c5ccccc5)n4n3)CC2)cc1 | ?
COc1ccc(CNc2nc(-c3ccc(C(=O)N(C)C)cc3)nc3ccccc23)c(OC)c1 | 32µM*
COc1ccc(C2CC(c3ccc(Cl)cc3Cl)Nc3nc(N)nn32)cc1 (centres undefined) | -3%
O=C(Cc1cccs1)Nc1ccc(S(=O)(=O)N2CCCCC2)cc1 | -18%
C/C(CCN1CCc2nc(-c3ccccc3)c(-c3ccccc3)cc2C1)=N\OC[C@@H](O)[C@@H]1O[C@@H]2OC(C)(C)O[C@@H]2[C@H]1O | 2%[11.4 µM]
O=C(c1ccc(Cl)cc1)c1ccc(OCC(O)CN2CCOCC2)cc1 (centres undefined) | 1%
COC(=O)c1cccnc1-n1c(=O)c2cccnc2n(Cc2ccc(Cl)cc2)c1=O | -17%
CCOc1ccccc1N1CCN(C(=O)c2ccccc2)CC1 | 1%
Cc1cccc(-n2nnnc2SCc2csc(-c3ccccc3)n2)c1 | ?
O=C(CSc1nnc(-c2cnccn2)n1Cc1ccco1)c1ccc2ccccc2c1 | -23%
CC(=O)NC1(C(F)(F)F)C(=O)Nc2c1c(=O)[nH]c(=O)n2Cc1ccco1 (centres undefined) | -5%

Sorted by molecular weight (low to high): five of the compounds above
smiles | HSD17B inh
O=C(Nc1cccc2ncccc12)c1cccnc1 | 10%
Cc1csc2ncc(C(=O)NCc3ccccn3)c(=O)n12 | 25µM*
Cc1cccc(-n2nnnc2SCc2csc(-c3ccccc3)n2)c1 | ?
O=C(c1ccc(Cl)cc1)c1ccc(OCC(O)CN2CCOCC2)cc1 (centres undefined) | 1%
COC(=O)[C@@]1(Cc2ccccc2)[C@H]2c3cc(C(=O)N(C)C)n(Cc4ccc(S(C)(=O)=O)cc4)c3C[C@H]2CN1C(=O)c1ccccc1 | 5%

Following part:
smiles | HSD17B inh
CCn1c(SCC(=O)Nc2nc(C)cs2)nnc1C(NC(=O)c1ccccc1Cl)C(C)C (centres undefined) | 8%
CSCC[C@@H](Nc1nc(-c2ccccc2)nc2c1oc1ccccc12)C(=O)O | -21%
OC(COc1ccc(Br)cc1)CN1CCOCC1 (centres undefined) | 7%
COc1cccc(CNC(=O)c2ccc3nc[nH]c3c2)c1 | 6%
CCOC(=O)CSc1nnc(CNc2ccccc2Cl)n1-c1ccccc1 | -2%
Cc1c(Cl)cccc1Nc1ccccc1C(=O)O | -4%
c1cncc(CNc2nc(N3CCOCC3)nc(N3CCOCC3)n2)c1 | -1%
Cn1nnnc1SCSc1nnnn1C | 4%
O=C1CC(c2ccncc2)c2cc3c(cc2N1)OCO3 (centres undefined) | -7%
COc1cccc(NC(=O)C2C3C=CC4(O3)C2C(=O)N(C(C)C)C4C(=O)NC2CCCCC2C)c1 (centres undefined) | 2%
Cc1nc2nc(SCC(=O)NCc3ccco3)nn2c(C)c1Cc1ccccc1 | -5%
Cn1c(=O)c2c(ncn2CC(=O)Nc2cc(Cl)c(Cl)cc2Cl)n(C)c1=O | 4%
CCCCCCn1c(CN2CCN(C)CC2)nc2c1c(=O)n(C)c(=O)n2C | ?
CCc1nc(NC(C)C)c2oc3ccccc3c2n1 | -22%
O=C(C1CCN(S(=O)(=O)c2cccc3cccnc23)CC1)N1CCn2c1nc1ccccc12 | ?
CC(=O)NO | 6%
CC1(C)CC(=O)C(C=Nc2ccccc2C(=O)O)=C(O)C1 | 329%[activator]
COCCCNC(=O)Cn1cc(C(=O)C2CC2)c2ccccc21 | -7%
Cc1cc([N+](=O)[O-])c(C)c(Br)c1C | 0%[11.4 µM]
O=C(c1cnn2c(C(F)(F)F)cc(-c3ccc(Br)cc3)nc12)N1CCOCC1 | -3%
O=Cc1ccc(OC2C=CC(c3ccccc3)OC2CO)cc1 (centres undefined) | 2%[11.4 µM]
Cc1cc(=O)n2[nH]c(C)c(-c3ccccc3)c2n1 | 25µM*
COC(=O)c1ccc(C(/C=C/[C@@H](C)C(=O)NCc2ccc(OC)c(O)c2)NC(=O)OCc2ccccc2)cc1 (some centres undefined) | -8%
CC(=O)c1ccc(OCC(O)CN(C)Cc2cccs2)cc1 (centres undefined) | 2%
CC(=O)Nc1ccc(OC(=O)c2ccccc2O)cc1 | i
CC12CC(c3ccccc3O1)C(C(=O)NCc1ccccc1)C(=O)N2 (centres undefined) | 8%
Nc1ncnc(Nc2ccccc2C(F)(F)F)n1 | -3%
O=C(CCN1C(=O)C2C3C=CC(C3)C2C1=O)NCCN1CCCc2ccccc21 (centres undefined) | 2%
Cc1ccc2c(CN3C(=O)NC(C)(c4ccc5c(c4)OCO5)C3=O)cc(=O)oc2c1 (centres undefined) | ?
COc1ccc(-c2noc(CCC(=O)NCC3CCN(Cc4cccc(C)c4)CC3)n2)cc1 | -4%

Among those listed so far, 3 contain a cyano group.
smiles | HSD17B inh
N#C/C(C(=O)Oc1ccccc1)=C1\C=CC=CN1 | 272%[activator]
CC1CCc2nc(N)c(C#N)c(-c3cccn3C)c2C1 (centres undefined) | -2%
N#Cc1cccc(NC(=O)N2CCC(c3nc4c(nnn4Cc4cccc(Cl)c4)c(=O)[nH]3)CC2)c1 | -5%

Remaining list, next part
smiles | HSD17B inh
Cc1cc2oc(=O)cc(CN3CCC(C)CC3)c2cc1Cl | -1%
COCCNC(=O)c1snc2ccc(Cl)cc12 | ?
Cc1cc(Cl)ccc1OCCCC(=O)N1CCN(C(=O)c2ccco2)CC1 | -8%
O=C(Cn1nnc(-c2ccccc2-n2cnnn2)n1)NCc1ccccc1 | -1%
Cc1ccc(CCNC(=O)C2CCN(S(=O)(=O)N3CCC4(CC3)OCCO4)CC2)cc1 | -3%
CCOc1c(N2CCCCC2)c(=O)c1=O | 11%
Cc1ccc(NS(=O)(=O)c2cc(C(=O)N3CCN(C)CC3)ccc2C)cc1 | 3%
S=c1[nH]nc(-c2cccc(Br)c2)o1 | -28%
CCOC(=O)CN1C(=O)CSc2ccccc21 | 8%
COc1ccc(-c2ccccc2C2NC(C(=O)O)CCC2C)cc1 (centres undefined) | 1%[11.4 µM]
O=C(CN(CCc1ccccc1)C(=O)CNS(=O)(=O)c1ccccc1)NCC1CCCO1 (centres undefined) | 1%
CN1C(=O)CC(N2CCN(C(c3ccccc3)c3ccccc3)CC2)C1=O (centres undefined) | 12%
CCOC(=O)N1CCN(Cc2nc3c(c(=O)n(C)c(=O)n3C)n2Cc2ccccc2C)CC1 | -5%
O=C(CNC(=O)c1cccs1)NC1=NCCS1 | 1%
Nc1cc(=O)[nH]c(=O)n1Cc1ccco1 | 4%
NS(=O)(=O)c1ccc(NCc2c(F)cccc2Cl)cc1 | -6%
Cc1ccc(C#N)cc1 | 5%
CC1CN(C2CCCCC2)c2nc3c(c(=O)n(C)c(=O)n3C)n2C1 (centres undefined) | 5%
Cc1cc(N2C(=O)C3C4C=CC(C4)C3C2=O)ccc1Br (centres undefined) | -4%
O=C(CSc1nc2ccccc2o1)Nc1ccc(N2CCOCC2)c(Cl)c1 | 8%
O=C(CSc1nnc(Cc2cccs2)n1-c1ccccc1)NCc1ccc2c(c1)OCO2 | 4%
O=C(Nc1ccc(S(=O)(=O)NCc2ccco2)cc1)c1ccc2ccccc2n1 | ?
COc1ccc(C2(C(=O)Nc3cc(C)on3)CCOCC2)cc1 | -13%
N#Cc1ccc(OCc2nnc(SCC(=O)N3CCCc4ccccc43)n2-c2ccccc2)cc1 | 0%
COc1cc(-c2nc(S(=O)(=O)c3ccc(C)cc3)c(N3CCOCC3)o2)cc(OC)c1OC | -10%
O=C1C[C@H](c2ccccc2)Oc2cc(O)cc(O)c21 | -8%
O=C(Nc1cc(C(F)(F)F)ccc1N1CCCCC1)c1ccco1 | 463%[activator]
CC1(C)NC(=O)N(CC(O)COc2ccccc2-c2ccccc2)C1=O (centres undefined) | -4%
c1nc(N2CCOCC2)c2[nH]cnc2n1 | -7%
CCCCCCC1=Cc2cc(OC)c(OC)cc2C(C2(C(=O)OCC)CCCC2=O)O1 (centres undefined) | 4%[11.4 µM]
Cc1nnc(SCCn2c(N3CCN(Cc4ccccc4)CC3)nc3c2c(=O)[nH]c(=O)n3C)s1 | 4%
CCNS(=O)(=O)c1c(C)cc(N2CCCC2=O)cc1C | 2%
CCCCN(C)CCCNC(=O)c1cccc(N2CCCC2=O)c1 | 1%
c1ccc(CCN2CCN(c3ncnc4c3cnn4-c3ccccc3)CC2)cc1 | ?
CCc1cc(=O)oc2cc(OCC(=O)N3CCCc4ccccc43)ccc12 | ?
O=C(NCC1COc2ccccc2O1)c1ccccc1 (centres undefined) | 0%
Cc1cc(C(=O)Cn2nnc3ccccc3c2=O)c(C)n1Cc1cccs1 | -1%
Cc1cccc(-n2ccnc2SCC(=O)Nc2nccs2)c1C | -2%

An excerpt (hit frequency here may not be typical).
